From PubChem BioAssay
RecA intein inh – inhibitors of M. tuberculosis RecA intein splicing. cell-free RecA intein splicing, fluorescence. inhibition, %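 (about 9 µM by stock and volumes)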. 290,000 tested, 0.75% active; in the data active = inhibition above about 30%; inconclusive = no clear call, values can overlap the other calls;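 note: 0% = vehicle wells and 100% = reference inhibitor control wells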
Target sequence (P9WHJ3 whole entry, looked up): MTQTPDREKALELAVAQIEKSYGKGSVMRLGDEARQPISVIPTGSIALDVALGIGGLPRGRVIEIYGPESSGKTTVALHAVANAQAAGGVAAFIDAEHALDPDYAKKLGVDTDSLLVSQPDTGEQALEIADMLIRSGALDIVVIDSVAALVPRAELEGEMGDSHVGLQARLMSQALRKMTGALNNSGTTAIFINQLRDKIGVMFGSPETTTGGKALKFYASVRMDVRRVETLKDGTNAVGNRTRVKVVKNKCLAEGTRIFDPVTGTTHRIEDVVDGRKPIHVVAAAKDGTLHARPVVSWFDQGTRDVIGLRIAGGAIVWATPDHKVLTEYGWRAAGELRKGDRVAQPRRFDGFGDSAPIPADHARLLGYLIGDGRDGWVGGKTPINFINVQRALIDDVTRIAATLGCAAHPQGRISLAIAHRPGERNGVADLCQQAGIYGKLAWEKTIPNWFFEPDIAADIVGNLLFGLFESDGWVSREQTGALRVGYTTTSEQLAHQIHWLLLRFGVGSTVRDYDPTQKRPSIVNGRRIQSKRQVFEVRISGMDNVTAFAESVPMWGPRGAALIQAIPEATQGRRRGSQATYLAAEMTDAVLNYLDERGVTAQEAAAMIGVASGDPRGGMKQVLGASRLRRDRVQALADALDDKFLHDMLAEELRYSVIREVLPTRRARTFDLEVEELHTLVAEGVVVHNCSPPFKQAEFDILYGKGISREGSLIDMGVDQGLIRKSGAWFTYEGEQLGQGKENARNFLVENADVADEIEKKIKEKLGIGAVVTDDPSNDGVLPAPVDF
Mtb growth – M. tuberculosis H37Rv growth inhibitors, H37Rv strain (AID 1626); M. tuberculosis H37Rv growth inhibition; higher % means a stronger effect; one-dose inhibition, % at 10 µM; IC50 in µM for titrated hits; 220,000 tested, 0.95% active;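 active = confirmed in a dose series; inconclusive = inhibition above 80% but not taken into the dose series; inactive = below 80% or under 30% at every dose of the series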;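 note: bacteria incubated seven days before Alamar blue readout; 0% = bacteria only wells and 100% = bacteria with antibiotic wells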
Arbovirus inh – antivirals against arbovirus infection. inhibition, % at 10 µM. 200,000 tested, 0.37% active. arbovirus infection cell-based antiviral screen;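 active = inhibition from about 30%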;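 note: bluetongue infection of BSR cells; cell survival read as ATP light after 72 h; 0% = infected wells without compound and 100% = uninfected wells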
Mtb betalactam – beta-lactam sensitization of Mtb H37Rv; AID 434955; 330,000 tested, 0.27% active; M. tuberculosis H37Rv growth with meropenem, percent inhibition; hits of this screen are not shown here; inhibition, % at 25 µM;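 active = about 74% or more and at least 40 points above the plate without the antibiotic, then above 30% in a dose series; inconclusive = first-round hits that could not be retested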;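 note: growth measured after seven days incubation then overnight dye step; 0% = bacteria only wells and 100% = bacteria with antibiotic; twin plates without the antibiotic show which effects depend on it; some results filed as inactive read as strong as hits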
YopH PTP inh – inhibitors of Yersinia enterocolitica YopH tyrosine phosphatase. fluorescence Ex485/Em525. inhibition, %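 (about 10 µM by stock and volumes)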. 140,000 tested, 0.16% active. AID 898;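 active = inhibition of 50% or more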;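 note: controls were vehicle for no effect and minimum signal wells for full effect; inactives centre near -20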
Arbovirus inh repeat – further read-out of Arbovirus inh, marked with its call; inhibition, %; measured here: 10K subset replicate screen; many hits read low in the repeat;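 first of two repeat runs on a subset; 0% = infected and 100% = uninfected wells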
* hit, by the source's call; ? = inconclusive; · = no result given. These rows are one share of the data; count on the stated rates, not on these rows.

SMILES | RecA intein inh | Mtb growth | Arbovirus inh | Mtb betalactam | YopH PTP inh | others
CC(=O)N1C(C)c2ccccc2C(C)(C)CC12CCCCC2 (centres undefined) | 0.8 | 3% | -2 | -2 | -32
CC[C@@H](C)[C@H](NC(=O)Cc1c(C)c2c(cc(C)c3c(C)coc32)oc1=O)C(=O)O | -6.6 | · | · | 3 | ·
CCNC(=O)OCC12CC3CC(CC(C3)C1)C2 | -2.5 | -2% | 8 | 2 | -5
O=C(CSc1nc2c(cnn2-c2ccc(F)cc2)c(=O)[nH]1)N1CCCc2ccccc21 | 2.2 | -9% | 19 | -2 | -35 | Arbovirus inh repeat=13
COC(=O)C1=C(C)N(c2ccc(OC)c(OC)c2)C(=O)C1 | 0.5 | -4% | 1 | 1 | -5
CCc1sc2nc(SCC(=O)Nc3cc(C)on3)n(-c3cccc(OC)c3)c(=O)c2c1C | -0.2 | 0% | -14 | 86 | -33
CCCCN(C(=O)CN1C(=O)C2CCCCC2C1=O)c1c(N)n(CCCC)c(=O)[nH]c1=O (centres undefined) | 2.8 | · | · | -5 | ·
CCOC(=O)C1(Cc2cccc(OC)c2)CCCN(C(=O)c2cc(C)oc2C)C1 (centres undefined) | 0.9 | · | · | 4 | ·
COc1cc(/C=C/c2onc(C)c2[N+](=O)[O-])cc(OC)c1OC | -3.5 | · | · | 2 | ·
Fc1ccccc1/C=N/Nc1nc(N2CCCCC2)nc(N2CCCCC2)n1 | 1.2 | 16% | 2 | 36 | ·
CC1(C)CN2C(c3ccc(Cl)cc3)N2C1 (centres undefined) | 0.3 | -8% | 12 | 2 | -10
CC(C)CN(CC(C)C)C(=O)CN1C(=O)NC2(CCCc3ccccc32)C1=O (centres undefined) | -0.1 | · | · | 1 | ·
CC(C)c1ccc(NC(=O)CCNC(=O)N2CC(=O)Nc3ccccc32)cc1 | 0.0 | · | · | -4 | ·
N#C/C(=N\Nc1cccc(Cl)c1)C(=O)c1ccccc1 | -1.2 | -11% | 2 | -2 | -39
COc1cc2ccccc2cc1C(=O)N1CC(C)CC(C)C1 (centres undefined) | -0.8 | · | · | -12 | ·
CN(C(=O)COC(=O)COc1ccc2c(c1)CCC2)c1c(N)n(Cc2ccccc2)c(=O)[nH]c1=O | -0.8 | · | · | 2 | ·
COc1cccc(C2CCN(CC(=O)Nc3cc(Cl)ccc3OC)CC2O)c1 (centres undefined) | 1.2 | · | · | 3 | ·
CC(Sc1ccccc1)C(=O)N1CCN(S(=O)(=O)c2ccccc2F)CC1 (centres undefined) | 0.7 | · | · | -5 | ·
COc1cc(CO)cc(Br)c1OCC(=O)O | 0.1 | 5% | 3 | -3 | -26 | Arbovirus inh repeat=3
CCCc1nc2oc3c(NCc4ccccn4)ncnc3c2c2c1COC(C)(C)C2 | · | -2% | -5 | -4 | -22
CCc1ccc(NC(=O)NCC2CCN(c3ccc(OC)cc3)C2)cc1 (centres undefined) | -2.4 | -2% | · | 1 | ·
Cc1cc(C)cc(C(=O)N2CCN=C2SCc2ccc([N+](=O)[O-])cc2)c1 | -0.6 | 6% | -2 | 9 | -18
CC(=O)Nc1ccc(S(=O)(=O)Nc2ccccc2C(=O)N2CCCCCC2)cc1 | 3.4 | · | · | -1 | ·
c1cc(CNC23CC4CC(CC(C4)C2)C3)ccn1 | 0.9 | -1% | 2 | -7 | ·
CCOC(=O)c1c(NC(=O)CSc2nnc(CN3CCOCC3)n2C)sc2c1CCCC2 | -2.0 | -6% | -4 | -4 | 38
Cc1ccnc(NC(=O)C2CCCN(c3ncnc4c3nc3n4CCCCC3)C2)c1 (centres undefined) | -0.6 | · | · | -2 | ·
CSc1nc(NCc2ccco2)c2sc3nc(C(C)C)c4c(c3c2n1)CC(C)(C)OC4 | -3.2 | -2% | -13 | 4 | -48
Cc1cccc(-c2noc(Cc3ccc(Cl)cc3)n2)c1 | 4.2 | 9% | 4 | 16 | 9
CCN(CC)c1ccc(NC(=O)CSc2nc(C)cc(=O)[nH]2)cc1 | -3.3 | -7% | 3 | -2 | -44 | Arbovirus inh repeat=9
O=C(NNC(=O)c1cnccn1)c1ccc(Cl)c(Cl)c1 | 3.5 | · | · | 92 | ·
O=C(Nc1ccc(NC(=O)C2CC2)cc1)c1cccs1 | 0.1 | · | · | -2 | ·
COC(=O)C1=C(C)N(Cc2ccccc2)C(=NCc2cc(OC)c(OC)c(OC)c2)N[C@H]1c1ccccc1 | 2.2 | · | · | -10 | ·
Clc1ccc(CNCC2CCCO2)cc1 (centres undefined) | -1.7 | · | · | -8 | ·
CCSc1nc(C)c(CCOc2cccc(C)c2)c(=O)[nH]1 | -2.7 | -2% | 1 | 4 | ·
CCOC(=O)C1CCCN(c2c(NCCc3ccc(S(N)(=O)=O)cc3)c(=O)c2=O)C1 (centres undefined) | 4.2 | -2% | 0 | -4 | -47
N#Cc1ccc(Oc2ccc(-c3cnc4ccccc4n3)cc2)cc1C#N | -1.6 | -6% | -8 | 6 | -12
CC(C)N(CCn1cnc2c([nH]c3ccccc32)c1=O)C(C)C | -1.6 | -9% | · | -2 | ·
Cc1cccc(C)c1Nc1nnc(SCC(=O)NC(=O)c2cccn2C)s1 | 9.1 | -2% | -3 | 3 | -2
O=C(O)CONC(=O)c1cc(OCC(F)(F)F)ccc1OCC(F)(F)F | · | -13% | 10 | -2 | -39
CN(Cc1ccc(Br)cc1)C(=O)CCN1C(=O)c2cccc([N+](=O)[O-])c2C1=O | -1.9 | · | · | 100 | ·

Entries above with bromine (two):
SMILES | RecA intein inh | Mtb growth | Arbovirus inh | Mtb betalactam | YopH PTP inh | others
COc1cc(CO)cc(Br)c1OCC(=O)O | 0.1 | 5% | 3 | -3 | -26 | Arbovirus inh repeat=3
CN(Cc1ccc(Br)cc1)C(=O)CCN1C(=O)c2cccc([N+](=O)[O-])c2C1=O | -1.9 | · | · | 100 | ·

Remaining list, next part:
SMILES | RecA intein inh | Mtb growth | Arbovirus inh | Mtb betalactam | YopH PTP inh | others
COc1ccccc1CNC(=O)c1ccc(CS(=O)(=O)c2ccccc2C)o1 | 2.5 | · | · | 1 | ·
CCOC(=O)CSc1nc2ccccc2c(=O)n1CCN1CCOCC1 | -4.1 | -2% | 3 | 6 | 9
OC(COc1ccc(CNCc2cccnc2)cc1)CN1CCc2ccccc2C1 (centres undefined) | 1.1 | -4% | -10 | 1 | ·
Cc1cc(NC(=O)c2ccc(N3C(=O)CCC3=O)cc2)no1 | -0.6 | 4% | -1 | -3 | -39
COc1ccc(CCNC(=S)Nc2ccccc2C)cc1 | 7.1 | 4% | 3 | 4 | -23
OCCN1CCN(CCSc2ccccc2)CC1 | · | -4% | 3 | -2 | -33
Cc1ccc(S(=O)(=O)NCCSc2nnnn2-c2ccc(C(N)=O)cc2)cc1 | 1.9 | 14% | 1 | 3 | -23 | Arbovirus inh repeat=0
CCOC(=O)c1[nH]c2ccccc2c1NC(=O)c1nonc1C | 0.0 | 0% | -5 | ? | -41
CN(C)NC(=O)C12CCC(C)(C(=O)O1)C2(C)C (centres undefined) | -7.7 | -4% | -2 | -2 | ·
C=CCn1c(SCC(=O)Nc2ccc(C(=O)OC(C)C)cc2)nnc1-c1cccs1 | 0.1 | 1% | -6 | 1 | -40
CCCCCCOc1ccc(N2C(=O)CC(N3CCN(CCN=CC4=C(O)CC(C)(C)CC4=O)CC3)C2=O)cc1 (centres undefined) | 1.0 | -2% | 4 | -1 | ·
COc1ccc(O)c(/C=N/N=C2/C(=O)Nc3ccccc32)c1 | -22 | 7% | -6 | 1 | ·
CC(C)CCNC(=O)[C@H](CC(C)C)NC(=O)[C@H]1O[C@@H]1C(=O)O | -0.5 | -9% | 5 | -3 | -33
Cc1cccc(-n2c(C)c(C)c3c(N)ncnc32)c1 | 1.7 | · | · | -3 | ·
COc1cc2c(C)nc3c(cnn3-c3ccccc3)c2cc1OC | 2.3 | 41% | 1 | 98 | ·
O=C(COc1ccc(Br)cc1CNC1CCCC1)Nc1ccccc1 | 0.6 | 3% | 5 | 11 | ·
CS(=O)(=O)Nc1ccccc1C(=O)NCCSCc1ccccc1 | 1.0 | 2% | 4 | -11 | ·
CC(C)CN1CCN(Cc2cccn2-c2ccc(Cl)cn2)CC1CCO (centres undefined) | -13 | 6% | 8 | 4 | ·
O=C(Nc1c2c(nn1-c1ccc(F)cc1)CS(=O)C2)c1ccc(Br)o1 (centres undefined) | 2.2 | · | · | -12 | ·
CN(C)C(=O)c1cc([N+](=O)[O-])ccc1O | 1.6 | -2% | 2 | 2 | ·
Cc1cc(=O)oc2cc(NC(=O)CCCC(=O)O)ccc12 | -0.1 | · | 0 | -10 | -33
CS(=O)(=O)N1CCN(c2ccccc2NC(=S)NC(=O)c2cccs2)CC1 | -0.2 | 19% | 3 | 3 | ·
CCn1c(C)nc2cc(C(=O)n3cc(C(=O)c4ccccc4O)cn3)ccc21 | · | 5% | -3 | · | -35
Cc1cc2oc(=O)cc(CN3CCN(S(=O)(=O)c4ccc5c(c4)OCCO5)CC3)c2cc1C | -1.6 | -3% | -5 | 1 | -44
COc1cccc(CCNC(=O)C2CCC(=O)N(Cc3cccc(OC)c3)C2)c1 (centres undefined) | 1.8 | · | · | 6 | ·
O=C(COC(=O)c1cn(-c2ccccc2)nc1-c1ccccc1)c1ccc([N+](=O)[O-])cc1 | -0.6 | · | 0 | 7 | -29
Cc1ccc(Oc2ncccc2NC(=O)CC(CC(=O)O)c2ccccc2)c2c1CCC2 (centres undefined) | 0.7 | -2% | · | -1 | ·
C/C(Cl)=C/Cn1c(SCc2ccc(Cl)cc2)nc2c1c(=O)[nH]c(=O)n2C | 0.0 | 2% | -8 | · | 6
Nc1ccc2c(c1)C(=O)N(CCCCCC(=O)O)C2 | 0.7 | -5% | 2 | -7 | -13
COc1ccc(NC(=O)Cc2coc3cc(C)ccc23)cc1S(=O)(=O)N1CCOCC1 | 2.5 | -4% | 15 | -2 | -11

As a working copy, two of the compounds above:
SMILES | RecA intein inh | Mtb growth | Arbovirus inh | Mtb betalactam | YopH PTP inh | others
Nc1ccc2c(c1)C(=O)N(CCCCCC(=O)O)C2 | 0.7 | -5% | 2 | -7 | -13
COc1ccc(NC(=O)Cc2coc3cc(C)ccc23)cc1S(=O)(=O)N1CCOCC1 | 2.5 | -4% | 15 | -2 | -11

The list continues:
SMILES | RecA intein inh | Mtb growth | Arbovirus inh | Mtb betalactam | YopH PTP inh | others
COCCSc1ccccc1C(=O)Nc1ccc(Cl)cn1 | 0.3 | 12% | 4 | 1 | -22
CCOC(=O)N1CCN(CC(=O)Nc2cc(C)nn2-c2nc3ccccc3s2)CC1 | 16 | 45% | -2 | 70 | -12
COc1ncccc1C(=O)NC1CCCc2c1cnn2-c1ccc(C)c(C)c1 (centres undefined) | 5.4 | · | · | 0 | ·
CC(C)(CSc1nncn1/N=C/c1ccco1)NS(=O)(=O)c1ccc(Cl)cc1 | 1.4 | 5% | 7 | -30 | -19
O=C(COc1ccccc1)NC(=S)Nc1ccc(Br)cn1 | -1.2 | -3% | · | -2 | ·
CCN(CCCNC(=O)CCn1c(=O)[nH]c2ccccc2c1=O)c1ccccc1 | -0.3 | -12% | 1 | 0 | -17
CSc1ccc(CN2CCN(CC=C(C)C)C(CCO)C2)cc1 (centres undefined) | 0.4 | -3% | -3 | -3 | ·
COc1ccc(CC2(CO)CCN(Cc3ccncc3)CC2)cc1 | -3.9 | 6% | 2 | -8 | ·
CN(C)CCCN=Cc1c(O)n(CCc2ccccc2)c(=O)[nH]c1=O | 1.2 | -6% | 0 | -2 | -25
CCOC(=O)C1CCN(C(=O)c2ccc3c(=O)n4c(nc3c2)CCCCC4)CC1 | -2.1 | · | · | -8 | ·
CCCC(=O)NC(=S)Nc1ccccc1N1CCOCC1 | 1.2 | 11% | -4 | 4 | -19
O=C(CP(=O)(c1ccccc1)c1ccccc1)Nc1nc2ccc(Cl)cc2s1 | -0.4 | -11% | · | -5 | ·
COc1ccc(N2CCN(Cc3nc(-c4ccc(Cl)cc4Cl)no3)CC2)cc1 | -0.7 | -9% | 10 | -4 | -23
CC(C(=O)Nc1ccc(F)c(F)c1F)N(C)CC(=O)Nc1ccccc1Br (centres undefined) | -2.0 | 0% | 0 | 0 | -12
C=CCn1c(COc2cccc(C)c2C)nnc1SCC(=O)N1CCN(c2ccccc2)CC1 | 8.7 | 11% | -34 | 12 | -16
O=S(=O)(Nc1cccc(-c2ccc3nncn3n2)c1)c1ccc(Cl)s1 | -1.0 | -4% | -2 | 95 | ·

3 records drawn at random from those above, as already listed:
SMILES | RecA intein inh | Mtb growth | Arbovirus inh | Mtb betalactam | YopH PTP inh | others
C=CCn1c(COc2cccc(C)c2C)nnc1SCC(=O)N1CCN(c2ccccc2)CC1 | 8.7 | 11% | -34 | 12 | -16
CC(C(=O)Nc1ccc(F)c(F)c1F)N(C)CC(=O)Nc1ccccc1Br (centres undefined) | -2.0 | 0% | 0 | 0 | -12
O=S(=O)(Nc1cccc(-c2ccc3nncn3n2)c1)c1ccc(Cl)s1 | -1.0 | -4% | -2 | 95 | ·
